High-throughput results: PubChem BioAssay, several laboratories
ALR H2O2 inh: inhibitors of human sulfhydryl oxidase ALR; P55789; purified ALR, DTT oxidation, H2O2 HRP-luminol luminescence; inhibition, % (no concentration beside the values); actives 3.8% (n = 290,000);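 active means mean and each replicate at 75% or more; inconclusive means only one of the two met; inactive means neither met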;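 further: stock transfer was 7.5 nL into about 7.5 µL; 0% = neutral wells and 100% = wells with inactivated enzyme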
Target sequence (P55789 whole entry, looked up): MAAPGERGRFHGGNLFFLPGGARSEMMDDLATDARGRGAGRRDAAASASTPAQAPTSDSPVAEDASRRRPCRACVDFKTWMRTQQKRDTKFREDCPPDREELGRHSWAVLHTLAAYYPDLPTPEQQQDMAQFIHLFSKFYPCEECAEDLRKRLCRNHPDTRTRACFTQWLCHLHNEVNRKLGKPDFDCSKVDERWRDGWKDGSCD
Beta cell apopt: beta cell apoptosis inhibition; AID 435005; protection from apoptosis, % (no concentration beside the values); actives 0.8% (n = 300,000); INS-1E cytokine-induced death, ATP luminescence, 48 h; percent of positive-control rescue, neutral wells zero;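 active means all replicates at 75% or more, or half of them and the mean; inconclusive means half reach 75% but not the mean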;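 further: 0% = cytokine-treated negative control wells and 100% = positive control rescue; higher means more ATP so stronger rescue from cytokine killing; wells of about 40 µL received 100 nL stock; the first replicate is given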
Bfl-1 A1 inh: inhibitors of the anti-apoptotic protein A1, read as caspase activation; MEF A1-2A-BIM cells, Caspase-Glo 3/7 luminescence, 3 h; percent of clofoctol response, vehicle zero; caspase activation, % (concentration not given with the values); actives 0.066% (n = 330,000); AID 2462;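 active means over half of replicate activation scores above 10%, or exactly half above 10 with the replicate mean above 10; inconclusive means replicate mean below 10 yet half the replicates above 10; inactive means over half of replicates below 10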;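 further: wells of about 30 µL received 50 nL stock; many hits fall short of the cut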
T cruzi repl: blocks replication of Trypanosoma cruzi; T. cruzi beta-gal in NIH3T3, luminescence, 90 h; AID 1885; inhibition, % (test concentration not listed); actives 1.4% (n = 300,000);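 active means mean inhibition across valid replicates above about 55%, limit read from the data; inconclusive means mean below that limit but half or more replicates reach it; inactive means mean below it, under half of replicates reach it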;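 further: signal also drops with host cell toxicity which is not excluded here; 0% = plate median of DMSO wells and 100% = zero luminescence signal; higher percent means less beta-gal luminescence so fewer parasites; stock transfer was 50 nL into about 50 µL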
rRNA inh HTS: inhibits bacterial ribosomal RNA function over humanized ribosomes | GFP signal change (wild-type ribosome), % (no concentration beside the values) | actives 1.6% (n = 350,000) | E. coli WT GFP vs humanized-ribosome RFP mutants, fluorescence, 24 h; active compounds read low; DMSO median 0, no signal -100;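 active means significant combined selectivity score with lowered wild-type GFP, culture density cut under 30%, mutant RFP and density less affected; inactive means any of these conditions unmet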; further: one replicate is shown; some compounds called inactive have numbers as strong as hits
Beta2AR agonist: human beta-2 adrenergic receptor agonism by FAP | P07550 | Am2.2-beta2AR cells, FAP receptor internalization, flow cytometry; reference of the scale not given here | response, % (test concentration not listed) | actives 0.43% (n = 340,000) | AID 504454;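 active means response above a set limit, near 3 SD of response in nonfluorescent compounds, cut at about 42% in these data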;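 further: stock transfer was 100 nL into about 11 µL; a reference agonist was the positive control; negative values mostly stem from fluorescent compounds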
Target sequence (P07550 whole entry, looked up): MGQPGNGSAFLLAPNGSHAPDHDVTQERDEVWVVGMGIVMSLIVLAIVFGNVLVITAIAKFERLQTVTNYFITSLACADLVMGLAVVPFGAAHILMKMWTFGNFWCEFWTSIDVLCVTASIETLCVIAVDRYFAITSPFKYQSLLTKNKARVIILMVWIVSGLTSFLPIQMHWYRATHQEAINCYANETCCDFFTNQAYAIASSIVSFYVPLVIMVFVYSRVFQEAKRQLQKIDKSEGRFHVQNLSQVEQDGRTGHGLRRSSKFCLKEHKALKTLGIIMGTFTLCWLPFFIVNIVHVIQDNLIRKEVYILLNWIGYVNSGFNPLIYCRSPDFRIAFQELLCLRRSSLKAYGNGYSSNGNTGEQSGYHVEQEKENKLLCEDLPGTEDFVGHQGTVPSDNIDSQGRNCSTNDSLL
LANA-H2B inh: blocks KSHV LANA binding to histone H2A/H2B; Q9QR71; cell-free LANA-H2A/H2B peptide, fluorescence polarization; inhibition, % (test concentration not listed); actives 0.6% (n = 320,000); in the data active means inhibition mostly above about 10%, no sharp cut-off; inactive means mostly below about 6.7%;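 further: stock transfer was 7.5 nL into about 10 µL; 0% = median of vehicle wells and 100% = median of positive control wells; one replicate is shown; the record names a cut of 25% in any replicate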
Calb FLC: C. albicans growth modulation with fluconazole; C. albicans CaCi-2 (fluconazole-resistant clinical isolate) + fluconazole, Alamar Blue growth, 48 h; growth inhibition, % (no concentration beside the values); actives 0.57% (n = 300,000);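 active means most replicates above 75%; inconclusive means exactly half above 75%; inactive means most below 75%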;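 further: all wells also contain fluconazole at 8 µg/ml as a sub-toxic cotreatment; 0% = median of DMSO wells and 100% = median of geldanamycin control wells; wells of about 8 µL received 7.5 nL stock; the first replicate is given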
rRNA inh HTS OD600: second read-out of rRNA inh HTS, no call of its own (marks repeat the call); OD600 change, %; measured here: OD600 growth;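 optical density of the mix in the first replicate; 0 = DMSO median and -100 = no signal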
rRNA inh HTS RFP: also measured in rRNA inh HTS; calls as there; RFP signal change, %; measured here: RFP humanized mutant strains;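 first replicate; 0 = DMSO median and -100 = no signal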
Numbers without * were called inactive; ? = inconclusive; . = no result given.

Every second line gives: ALR H2O2 inh	Beta cell apopt	Bfl-1 A1 inh	T cruzi repl	rRNA inh HTS	rRNA inh HTS OD600	rRNA inh HTS RFP	Beta2AR agonist	LANA-H2B inh	Calb FLC
> COC(=O)N/N=C/c1ccccc1Cl
  .	2	-0.9	3	-1	3	0.0	-5	.	0
> C[C@@H](C(=O)NCCc1ccccc1)N1C(=O)N2CCc3c([nH]c4ccccc34)[C@@]2(C)C1=O
  -1	1	0.5	61*	2	-12	-4.9	0	-0.4	0
> COc1cc2c(cc1OC)CN(S(C)(=O)=O)CC2
  -11	.	-1.5	-7	3	7	-0.6	-1	-0.2	0
> S=C(Nc1ccc(Cl)cc1Cl)N1CCOCC1
  -5	-4	0.4	0	-1	-1	-4.4	8	0.0	-5
> O=C(c1ccc([N+](=O)[O-])cc1)N(Cc1ccccc1)c1ccccn1
  -8	-2	0.8	-4	9	17	-2.4	2	0.6	2
> CCN(CC)S(=O)(=O)c1cc(C)c(C)cc1OCC(=O)NC1CCCC1
  -1	0	-0.4	23	-6	-28	-2.6	0	-6.6	-1
> CC(=O)NNC(=S)NC(=O)c1ccc(C)cc1
  .	1	-0.6	-16	16	11	-0.5	-3	3.7	-11
> COC(=O)c1ccc(CNC(=O)CNc2cc(C(F)(F)F)ccc2N2CCOCC2)cc1
  99*	4	0.8	-2	.	.	.	5	1.6	2
> O=C(CC1CCCC1)N1CCCC(Nc2cccc(F)c2)C1 (stereo unspecified)
  92*	3	-0.2	-4	-15	-21	4.2	3	2.4	28
> COc1ccc(CCNC(=O)CSc2ccc(-c3ccccc3)nn2)cc1
  3	-3	-0.4	-12	.	.	.	.	-3.3	-19
> COc1cccc(C2=NOC(C(=O)Nc3ccccc3SC)C2)c1 (stereo unspecified)
  -18	0	0.7	-5	.	.	.	0	1.4	-1
> O=C(NCc1ccc2c(c1)OCO2)C(=O)NCC1OCCN1S(=O)(=O)c1ccc(Cl)cc1 (stereo unspecified)
  -5	-11	0.7	-4	11	13	1.7	-5	0.3	-1
> CCN(CC)CCNC(=O)C1CCN(S(=O)(=O)c2c(C)noc2/C=C/c2ccccc2F)CC1
  -3	5	0.4	0	2	2	-0.5	-2	4.6	2
> CC1=CC(C)(C)N=C(Nc2ccc(C)cc2)S1
  -8	8	-0.4	14	.	.	.	13	0.8	5
> Cc1ccc2nc(NC(=O)CC3Oc4ccccc4NC3=O)sc2c1 (stereo unspecified)
  .	-5	-1.0	-11	2	-3	-8.8	1	-0.5	9
> c1ccc(CN2CCC3(CC2)Nc2ccccc2CO3)cc1
  15	-4	0.5	-2	.	.	.	6	-4.2	-4
> COc1ccc(N2CCN(C(=O)CSc3nnc(-c4ccc5[nH]c(C)c(C)c5c4)o3)CC2)cc1
  2	21	-0.3	13	.	.	.	32	1.8	-14
> CC(=O)Nc1ccc(N/C(N)=N/c2nc(C)cc(C)n2)cc1
  -5	.	1.3	-19	5	8	6.4	-19	2.3	-14
> Cn1c2c(c(=O)c3ccccc31)CCC(C)(C)O2
  6	-7	0.0	-2	6	8	-11	-12	-2.6	5
> FC(F)(F)c1cnc(N2CCCN(C(=S)Nc3ccccc3)CC2)c(Cl)c1
  .	-13	0.3	9	-41*	-12*	-0.3*	-7	-0.9	-10
> CC1CCN(c2ccc3nnc(CCC(=O)N4CCN(c5ccc(F)cc5)CC4)n3n2)CC1
  16	-3	0.3	0	-30	-28	-0.6	-15	0.1	-5
> COc1cccc(CNC(=O)C2CCN(S(=O)(=O)c3cnc[nH]3)CC2)c1
  .	-10	0.3	-12	.	.	.	6	-4.9	-7
> CSc1ncccc1C(=O)NCc1ccc(C)cc1
  .	-4	0.6	5	.	.	.	7	1.1	-2
> CC(C)n1cc(CN2CCC(Oc3ccc(C(=O)N4CCCCC4)cc3)CC2)cn1
  -3	-4	0.0	15	7	10	4.2	-1	2.3	6
> CCc1cc(=O)oc2cc(OCC(=O)O)c(Cl)cc12
  -7	-6	-2.1	4	.	.	.	1	3.8	-1
> CCCNC(=O)COC(=O)c1ccccc1OCC(=O)Nc1ccc(Br)cc1
  -2	0	0.2	-23	2	-2	4.5	-2	-2.9	11
> Cc1cc(C)cc(NC(=O)CC23CC4CC(C2)CC(n2nnc(C)n2)(C4)C3)c1
  0	2	0.1	1	.	.	.	6	0.5	9
> COC(=O)c1ccccc1NC(=O)c1cc(C)no1
  -3	.	-0.3	-5	13	5	1.8	24	-6.4	3
> COc1ccc2[nH]c3c(=O)n(Cc4ccco4)cnc3c2c1
  .	-17	-0.5	-25	.	.	.	4	-6.7	-2
> CSCCC1COC(c2cccs2)=N1 (stereo unspecified)
  -18	1	-1.0	1	16	9	1.5	-10	3.9	?
> COc1cccc(-c2nc(NCc3ccco3)c3ccccc3n2)c1O
  .	22	-0.2	5	.	.	.	14	-2.7	-7
> O=S(=O)(c1ccccc1)N1CCn2c(nc3ccccc32)C1
  -6	-1	0.0	-13	2	10	-2.7	0	3.5	-1
> COc1ccc(N(CC(=O)NCc2ccc(C)cc2)S(=O)(=O)c2c(C)noc2C)cc1
  2	-4	0.3	15	1	10	0.9	3	-3.3	-1
> Cc1onc(-c2ccccc2)c1C(=O)/C=C/N(C)C
  .	-3	0.2	-5	38	4	0.9	-4	9.5	7
> COc1cccc(C(=O)CSc2nnc(-c3cc(OC)c(OC)c(OC)c3)o2)c1
  11	-1	-0.3	12	.	.	.	5	3.2	7
> CCc1nnc(NS(=O)(=O)c2ccc(NC(=O)c3cc4ccccc4oc3=O)cc2)s1
  -6	-12	-0.4	2	24	6	-8.0	.	-0.5	0
> Cc1ccccc1C(=O)NC[C@@H]1CCCN2CCCC[C@H]12
  -5	1	0.6	-4	8	6	-3.2	-6	1.6	-3
> COC(=O)c1ccc(C(=O)OC)c(NC(=O)C(C)C)c1
  4	-1	-0.6	-14	18	10	1.6	-4	-6.1	-5
> CC(=O)C1=C(O)C(=O)N(CCO)C1c1ccccc1 (stereo unspecified)
  4	-2	0.9	-12	8	9	-4.0	-3	2.4	6
> Cc1ccc(C(=O)N(Cc2ccccc2)C(C)(C)C)cc1C
  -3	7	0.8	8	.	.	.	12	-6.4	49
> CCCCc1ccc(-c2csc(/C(C#N)=C/c3ccc(C)o3)n2)cc1
  0	0	-0.7	0	.	.	.	-6	-0.6	7
> COc1ccc(S(=O)(=O)N(C)c2ccc(C(=O)N3CCCC3)cc2)cc1OC
  .	-4	0.7	-7	0	3	-1.6	3	3.4	10
> Cc1ccc(CN(C)C(=O)CCNS(=O)(=O)c2ccccc2)o1
  -1	4	-0.5	.	4	1	0.5	-2	-281	.
> Cn1cc(CN2CCc3c([nH]c4ccccc34)C2C2CCCCC2)cn1 (stereo unspecified)
  6	-1	0.0	-4	-7	-4	-2.6	-11	2.3	24
> Nc1c(C(=O)Nc2ccc3c(c2)OCCO3)nnn1Cc1ccc(Cl)cc1
  -20	4	-1.0	-2	-3	10	3.7	-3	1.2	4
> CCc1ccc(NS(=O)(=O)c2c(C)noc2C)cc1
  2	.	-0.8	-10	-11	-14	-1.9	-1	-0.4	-1
> CCOC(=O)c1sc2nc(C)nc(N3CCCCC3C)c2c1C (stereo unspecified)
  6	4	-1.1	50	-26*	-20*	-7.5*	1	1.6	16
> O=C(Nc1cccc(Cl)c1)N1CCN(c2ncccn2)CC1
  -5	0	-3.7	-22	.	.	.	1	-4.5	-14
> CC(C)Oc1ccc(C2CNC(=O)C2)cc1 (stereo unspecified)
  1	.	0.6	2	0	3	-0.9	12	2.6	-2
> COCc1ccc(CN2CCCC(CCC(=O)NCc3cccc(OC)c3)C2)o1 (stereo unspecified)
  -5	-2	-0.9	59*	10	11	1.8	-1	1.7	-10
> CC(=O)c1cccc(NC(=O)C2CCN(S(C)(=O)=O)CC2)c1
  -6	-4	-0.4	12	10	2	-1.4	-4	1.3	-4
> c1ccc(N2OCC3Cn4c(nc5ccccc54)C32)cc1 (stereo unspecified)
  4	-1	-0.2	-23	8	5	7.0	1	-1.8	-4
> CCN1C(=O)c2ccccc2S(=O)c2ccc(C(=O)NCc3ccc(OC)cc3)cc21 (stereo unspecified)
  1	.	.	15	-9	-9	0.8	8	.	-4
> COCCN(C(=O)c1ccc(-c2ccc(Cl)cc2)o1)c1c(N)n(CC(C)C)c(=O)[nH]c1=O
  0	0	-0.5	.	5	4	0.5	-3	-1.2	.
> CCn1nccc1C(=O)Nc1nc2ccccc2n1CCN1CCCCC1
  -25	3	0.6	19	.	.	.	-1	-37	-18
> CCOC(=O)c1ccc(NC(=O)CSc2nnc(COc3ccccc3)n2C)cc1
  -25	0	-1.0	9	.	.	.	0	2.2	0
> COc1ccc(NC2CCCN(C(=O)CCc3scnc3C)C2)cc1 (stereo unspecified)
  99*	-7	0.1	1	2	2	-1.9	-5	-2.0	10
> O=C(COC(=O)c1ccc([N+](=O)[O-])o1)NC1CCCC1
  .	-1	0.5	.	-4	9	-2.2	4	-5.6	.
> CCCCc1cc(=O)oc2cc(OCC(=O)Nc3cccnc3)c(Cl)cc12
  -3	-10	0.2	-7	8	3	-2.1	10	6.4	-6
> CCOCCCNC(=S)NCCNc1nc2ccc(C)cc2cc1C#N
  2	-8	0.1	?	0	0	1.7	-7	2.3	-32

(listing goes on)
Every second line gives: ALR H2O2 inh	Beta cell apopt	Bfl-1 A1 inh	T cruzi repl	rRNA inh HTS	rRNA inh HTS OD600	rRNA inh HTS RFP	Beta2AR agonist	LANA-H2B inh	Calb FLC
> CCOC(=O)CSc1nc2cc3c(cc2cc1C#N)OCO3
  -3	-1	0.3	.	.	.	.	-1	-0.5	.
> Cc1ccc2[nH]c(=O)c(CN(CCCN(C)C)C(=O)Nc3ccc(Cl)cc3)cc2c1
  -3	-1	1.3	27	.	.	.	19	-0.1	28
> Nn1c(SCC(=O)NNC(=O)c2ccccc2)nnc1-c1ccccc1F
  -1	-2	0.0	0	2	3	-1.4	0	0.9	2
> CCCCC(=O)Nc1ccc(Br)cn1
  24	1	-0.2	-15	.	.	.	-1	5.3	-3
> COc1cccc(CN2C(=O)c3cccc(N)c3C2=O)c1
  -4	-11	1.1	-17	.	.	.	-2	4.9	4
> Cc1nnc2n(Cc3ccccc3)c(=O)c3c4c(sc3n12)COC(C)(C)C4
  2	-8	0.4	12	.	.	.	-22	6.8	-1
> O=C(CSc1nnc2scc(-c3ccccc3)n12)Nc1ccc2c(c1)OCCO2
  3	0	0.3	7	-19	-36	2.5	17	0.2	-31
> O=C(Nc1ccc(Br)cc1)c1ccccc1Br
  -1	.	-0.3	-2	-26	-24	-5.2	-2	-0.3	-2
> CC(C)(C)c1ccc(-c2cnco2)cc1
  -1	-3	-0.2	1	11	11	2.5	-1	8.7	-20
> CCN1CCN(S(=O)(=O)c2c(C)[nH]c(C)c2C(=O)N2CCCCC2)CC1
  -3	-3	-1.0	2	4	9	-1.6	-6	3.7	-6
> O=C(/C=C/c1ccc2ccccc2n1)N1CCN(c2ccccc2)CC1
  29	-5	0.2	-3	-14	-11	30	-3	0.9	10
> COC(=O)[C@@H](NC(=O)O[C@@H]1C(=O)c2ccc(OC)cc2O[C@H]1c1cccc(C(F)(F)F)c1)C(C)C
  0	-1	-0.2	15	.	.	.	.	-0.7	10

An excerpt (hit frequency here may not be typical).
